Compound activity deposited in PubChem BioAssay by National Center for Advancing Translational Sciences (NCATS).
miR-21 FLuc = raises the signal of a miR-21 reporter. HeLa miR-21 FLuc reporter, luciferase, 48 h. Potency, µM (titrated, usually from 38.3 µM), for the others: at the top dose reporter change, positive = more light. 340,000 tested, under 10 active; active = well fitted rising curve with a large enough effect; inconclusive = small, poorly fitted or top-dose-only effect; inactive = no such curve, though single readings can be large or run the other way;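 also: % of control where 0% means no effect; miR-21 action dims this reporter so a rising signal means less miR-21 action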
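Luminescence from a firefly luciferase reporter carrying a miR-21 binding site downstream, stably expressed under a CMV promoter in HeLa cells that make miR-21 endogenously, reports miRNA modulation after 48 h compound exposure up to approximately 40uM final.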
Rango-impB inh = Rango-importin beta binding inhibition; Rango CFP/YFP FRET sensor + importin beta, 45 min; Potency, µM (titrated, usually from 92.2 µM), without a hit: top-dose inhibition of complex formation; actives 0.031% (n = 340,000); AID 540263; active = rising FRET ratio curve, often small or poorly fitted; inconclusive = mostly compound fluorescence or quenching in the first reads; inactive = flat curves in all reads;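 also: potency is read from the fitted curve at half-maximal effect; 0% = DMSO wells and 100% = buffer wells lacking importin beta; nearly all actives have a fitted effect of over 15% in size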
Target sequence (Q14974 whole entry, looked up): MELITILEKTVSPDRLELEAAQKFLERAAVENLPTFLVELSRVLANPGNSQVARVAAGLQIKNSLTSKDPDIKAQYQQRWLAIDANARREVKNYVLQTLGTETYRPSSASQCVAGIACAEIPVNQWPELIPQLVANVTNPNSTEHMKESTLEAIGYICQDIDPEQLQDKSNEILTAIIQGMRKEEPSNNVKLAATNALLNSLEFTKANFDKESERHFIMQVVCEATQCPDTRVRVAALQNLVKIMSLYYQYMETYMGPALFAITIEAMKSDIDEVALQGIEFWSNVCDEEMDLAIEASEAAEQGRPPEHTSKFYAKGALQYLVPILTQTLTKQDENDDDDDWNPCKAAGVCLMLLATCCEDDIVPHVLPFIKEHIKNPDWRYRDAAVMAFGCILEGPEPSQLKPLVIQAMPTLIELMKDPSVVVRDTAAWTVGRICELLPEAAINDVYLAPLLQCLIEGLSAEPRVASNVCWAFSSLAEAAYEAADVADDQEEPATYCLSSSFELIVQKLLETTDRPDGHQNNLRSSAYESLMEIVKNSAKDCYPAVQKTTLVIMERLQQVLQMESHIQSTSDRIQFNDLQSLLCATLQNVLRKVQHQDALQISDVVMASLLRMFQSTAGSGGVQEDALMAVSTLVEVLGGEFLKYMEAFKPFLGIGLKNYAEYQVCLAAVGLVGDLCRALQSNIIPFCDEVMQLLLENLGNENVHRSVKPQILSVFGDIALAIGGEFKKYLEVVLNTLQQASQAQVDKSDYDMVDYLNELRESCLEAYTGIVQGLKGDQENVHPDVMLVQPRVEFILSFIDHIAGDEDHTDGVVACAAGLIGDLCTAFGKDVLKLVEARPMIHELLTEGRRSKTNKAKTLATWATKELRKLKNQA
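Inhibition scored from the CFP 486 nm/YFP 530 nm FRET ratio 45 min after adding 0.125 microM importin beta to 50 nM Rango biosensor preincubated 5 min with compound (room temperature, PBS with DTT, Tween-20, BSA). No-importin wells as positive control.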
Rango dissoc inh = inhibitors of RanGTP-induced Rango-importin beta complex dissociation. Biochemical FRET Rango-importin beta, RanGTP-induced dissociation. actives 0.071% (n = 340,000). Potency, µM (highest dose often 46.1 µM), for the others: top-dose activity change, negative = inhibition; active means falling FRET ratio curve, often poorly fitted, with flat reads before Ran was added; inconclusive means other falling curves, or compound fluorescence or quenching; inactive means flat or rising ratio curve;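 also: potency is read from the fitted curve at half-maximal effect; % of control where 0% means no effect; nearly all actives have a fitted effect of over 45% in size; -100% = wells without RanGTP and RCC1; the record marks most hits as doubtful in a second field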
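Two FRET readings bracket the reaction: one 5 min after compound meets Rango–importin beta, another 45 min after RanGTP-RCC1 (0.6 uM Ran, 0.2 uM RCC1, 2 mM GTP) is added. Only the second defines inhibition.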
GLA inh pH 4.5 = blocks human alpha-galactosidase A at pH 4.5. 230,000 tested, under 10 active. AID 1467. activity change, negative = inhibition, % at 105 µM. purified enzyme, 4-MU-alpha-Gal fluorescence, pH 4.5; inconclusive = small, poorly fitted or top-dose-only inhibition, or a rising curve; inactive = flat fitted curve, though single readings scatter; no compound was filed as active;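 also: 0% = full activity with enzyme and -100% = basal without enzyme; dose as in the result columns while the protocol names 77 µM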
An asterisk follows results filed as active; u = inconclusive; x = no result given; & = joins results of further samples. Some of the compounds tested, so the mix of outcomes need not match the whole.

SMILES	miR-21 FLuc	Rango-impB inh	Rango dissoc inh	GLA inh pH 4.5
CN(C)C(C(=O)NC1CCCCC1)c1ccc(Cl)cc1 (stereo unspecified)	0.5%	-0.8%	11.1%	2.7
COc1cccc(CCc2nnc(CCC(=O)NCCc3cccc(C)n3)o2)c1	2.9%	-1.1%	0.4%	0.0
O=C(NCC1CCCN1S(=O)(=O)c1cccs1)C(=O)Nc1ccc(F)cc1 (stereo unspecified)	x	-2.8%	-6.4%	x
N#Cc1c(-c2ccccc2Cl)cc(-c2ccccc2)nc1Br	9.1%	1.6%	5.2%	1.1
CCOC(=O)c1cnc2cc(-c3ccc(Br)cc3)nn2c1C	-34.4%	-2.2%	-13.7%	x
CCOC(=O)CC(=O)COc1nc2cc3c(nc2o1)CCCC3	-45.2%	u	u	x
COC(=O)c1cn(NC(=O)c2cnccn2)c(=O)c2ccccc12	19.8%	2.0%	23.7%	-3.2
CCOC(=O)Cc1nn(C(C)C)c(=O)c2ccccc12	-5.4%	-0.5%	0.6%	-1.3
Fc1cccc(Cl)c1CSc1nnc(CNc2ccccc2)o1	-30.3%	0.5%	15.3%	-26.8
O=C(NCc1ccc(Cl)cc1)C(=O)Nc1nccs1	0.7%	6.7%	2.0%	6.5
NS(=O)(=O)c1ccc(CNS(=O)(=O)Cc2ccc(Cl)cc2)cc1	0.1%	-1.0%	3.2%	x
CCc1ccc2nc(SCC(=O)N3CC(=O)Nc4ccccc43)c(C#N)cc2c1	2.1%	3.9%	0.2%	0.5
CCCCNC(=O)/C(=C/c1ccccc1)NC(C)=O	-1.1%	-0.1%	-3.8%	-16.2
O=C(C1=C[C@@H]2[C@H]3C(=O)N(c4ccccc4Cl)C(=O)[C@H]3[C@@H](C(=O)c3ccc(Cl)cc3)N2C=C1)c1ccccc1	-2.9%	x	x	-6.8
COc1cccc(/C=N/NC(=O)c2cccc([N+](=O)[O-])c2)c1OS(=O)(=O)c1ccc(C)cc1	5.9%	-0.8%	0.9%	-2.6
O=c1[nH]c2cc3c(cc2cc1CN(Cc1cccnc1)C(=S)NCc1ccco1)OCCO3	10.9%	-2.9%	-11.6%	-2.4
NC(=S)NN=C1CCCC(C(F)(F)F)C1 (stereo unspecified)	x	0.3%	-1.5%	x
CCOc1cccc(-c2c(C(=O)N/N=C/c3ccco3)nnn2-c2nonc2N)c1	-14.9%	0.3%	-2.3%	x
CC(C)Sc1nsc2nc(=O)c(/C=C3\C=Nc4ccccc43)c(N)n12	-9.4%	u	u	-10.0
COc1ccc(OC)c(NC(=O)c2cc3sccc3n2C)c1	-17.7%	-3.4%	-9.3%	-12.5
Cc1ccc(S(=O)(=O)CC(=O)NC(C)c2ccccc2)cc1 (stereo unspecified)	0.8%	0.7%	4.7%	x
C[C@H](NC(=O)c1ccco1)C(=O)NNC(=O)COc1cccc(C(F)(F)F)c1	x	-0.3%	-2.8%	x
Cc1ccc(NC(=O)CCNS(=O)(=O)c2ccc3c(c2)oc(=O)n3C)cc1C	-5.8%	u	-19.7%	-3.3
COc1ccc(C(=O)COc2ccccc2C(N)=O)cc1	-16.1%	-5.1%	30.4%	-7.6
COc1ccc(NC(=O)CSC2=C(C#N)C(c3ccco3)C3=C(CCCC3=O)N2)c(OC)c1 (stereo unspecified)	10.2%	u	-3.5%	-5.8

The list goes on:
SMILES	miR-21 FLuc	Rango-impB inh	Rango dissoc inh	GLA inh pH 4.5
COC(=O)c1ccc(CNC(=O)CNC(=O)c2sc3ccccc3c2Cl)cc1	x	1.9%	0.3%	x
Cc1csc(N(C(=O)c2cccc(S(=O)(=O)N3CCCC3)c2)c2ccccc2)n1	22.4%	4.9%	8.6%	-7.5
CCCCC1S/C(=N/N=C/c2cccs2)NC1=O (stereo unspecified)	-4.1%	5.1%	8.6%	-9.8
Cc1ccc(S(=O)(=O)N2CCCCC2)cc1C(=O)Nc1ncn[nH]1	-14.2%	x	x	-13.1
O=C(NC1CCCCC1)c1cccnc1Sc1ccccc1Cl	-3.5%	-3.2%	1.0%	x
O=C(Nc1cccnc1)Nc1ccccn1	-3.0%	-1.2%	-8.3%	-12.6
Cc1c(C(=O)O)sc2nc(CSc3ncc(C(F)(F)F)cc3Cl)[nH]c(=O)c12	-12.6%	-2.2%	-18.8%	-0.8
NC(=O)c1ccc(SCC(=O)OCC(=O)N2CCN(C(=O)c3ccco3)CC2)c([N+](=O)[O-])c1	x	-0.1%	29.0%	x
CCOc1ccc(NC(=O)c2cccc(OC(=S)N3CCOCC3)c2)cc1	-0.3%	-4.4%	0.5%	6.2
CCOc1ccc(/C=N/n2cc(-c3ccccc3)[nH]c2=S)cc1	-14.0%	u	11.1%	2.2
O=c1cc(-c2ccccc2)[nH]n1-c1ccccc1	x	2.9%	10.5%	x
COc1ccc(Nc2cc3n(c(=O)n2)CCc2cc(OC)c(OC)cc2-3)c(C)c1	-22.0%	2.6%	u	x
CCc1ccc(CN(C)CC(O)COc2cccc3ccccc23)cc1 (stereo unspecified)	-0.1%	3.8%	16.9%	x
Cc1ccc(OCCC(=O)OC(C)C(=O)Nc2ccc(Cl)cn2)cc1 (stereo unspecified)	x	-0.6%	11.9%	x
COc1ccc2c(C)cc(SCC(=O)Nc3nsc(-c4ccc(C)cc4)n3)nc2c1	-13.4%	-2.8%	1.1%	-0.4
COC(=O)c1cc(C(=O)Nc2cc(C)on2)cc([N+](=O)[O-])c1	-1.3%	-0.2%	19.4%	x
COc1ccc(C)cc1NC(=O)C1CCN(S(C)(=O)=O)CC1	-1.5%	-2.6%	-4.4%	x
O=C(Cn1nc(C(F)F)cc1C1CC1)NCCC1=CCCCC1	0.6%	-5.3%	-7.5%	-17.8
CC(C)(C)OC(=O)CNC(=O)c1nc[nH]c1C(=O)N1CCN(c2ccccc2)CC1	0.6%	-2.9%	-0.1%	x
O=C(COC(=O)c1ccc(S(=O)(=O)N2CCCCCC2)cc1)NCc1ccc(F)cc1	x	1.8%	25.7%	x
[O-][n+]1c(/C=C/c2ccccc2)ccc2ccccc21	-13.8%	-2.6%	0.1%	x
CCNc1oc(/C=C/c2ccc(OCC)cc2)nc1C#N	2.9%	1.1%	-8.7%	x
Cc1ccc(NC(=O)CSc2nnc(N)s2)cc1S(=O)(=O)N1CCOCC1	x	5.7%	10.0%	x
Cc1cccnc1CN1CCN(C(=O)c2cc(COc3ccc4ncccc4c3)on2)CC1	25.5%	-0.4%	22.7%	4.6
CCc1cc(=O)oc2cc(C)cc(OC(C)C(=O)NCCCn3ccnc3)c12 (stereo unspecified)	-6.7%	1.1%	0.8%	x

No new results follow: entries from further up.
SMILES	miR-21 FLuc	Rango-impB inh	Rango dissoc inh	GLA inh pH 4.5
COC(=O)c1ccc(CNC(=O)CNC(=O)c2sc3ccccc3c2Cl)cc1	x	1.9%	0.3%	x
Cc1csc(N(C(=O)c2cccc(S(=O)(=O)N3CCCC3)c2)c2ccccc2)n1	22.4%	4.9%	8.6%	-7.5

The list goes on:
SMILES	miR-21 FLuc	Rango-impB inh	Rango dissoc inh	GLA inh pH 4.5
O=C(COC(=O)c1n[nH]c2ccccc12)Nc1cccc(S(=O)(=O)N2CCOCC2)c1	-0.4%	0.2%	11.0%	-27.0
CC1c2[nH]c3ccccc3c2C[C@H]2C(=O)N(CCO)CC(=O)N12 (stereo partly specified)	-7.7%	-1.5%	-10.0%	x
O=C(CSc1nc2ncc(Cl)cc2[nH]1)N(Cc1ccccc1)C1CCS(=O)(=O)C1 (stereo unspecified)	-1.6%	0.0%	0.9%	-4.1
CCOC(=O)N1CCN(C(=O)Nc2ccccc2)CC1	-0.4%	-3.0%	2.6%	-8.3
O=C(/C=C/c1ccccc1[N+](=O)[O-])NCC1CCCO1 (stereo unspecified)	-18.4%	-0.3%	-0.6%	3.9
COCCNC(=S)N/N=C/c1ccccc1C(=O)O	-0.1%	0.3%	10.0%	0.7
O=C1CN(C(=O)c2cc3ccccc3o2)c2ccccc2N1	-36.5%	4.2%	1.5%	-1.8
O=C1CCC(C(=O)NCc2cccnc2)N1 (stereo unspecified)	-6.2%	0.8%	18.2%	1.7
N#Cc1cnn(-c2ccccc2)c1N	-0.3%	-3.1%	11.1%	1.8
O=S(=O)(CCN1C=CC(C(F)(F)F)=NCC1)c1ccc(F)cc1	-1.5%	1.8%	2.9%	-1.3
O=C(/C=C/c1ccccc1)c1ccc2ccccc2c1	x	0.3%	-5.1%	x
CCOCCCNC(=S)Nc1ccc2nc(N3CCCC3)cc(C)c2c1	-0.7%	-3.6%	-1.9%	0.1
CCOC(=O)C1CCN(C2CC(=O)N(c3cccc(Cl)c3)C2=O)CC1 (stereo unspecified)	-6.0%	-1.2%	0.5%	-4.5
COc1cc(CCC(=O)OCc2ccccc2C#N)cc(OC)c1OC	-0.1%	0.7%	-13.5%	x
COc1ccc(C(=O)Nc2ccccc2C(=O)N2CCOCC2)cc1	-0.7%	0.4%	18.2%	x
CCOC(=O)c1csc(NC(=O)c2ccc(OCC)cc2)n1	8.8%	1.6%	8.8%	-2.1
COCCN(C(=O)COc1ccccc1)c1nnc(-c2cccnc2)s1	-2.1%	-0.4%	-6.3%	3.4
CCCCCCCCNC(C)C(O)c1ccc(SC(C)C)cc1 (stereo unspecified)	6.3%	4.5%	1.8%	-14.8&-11.5
COc1cccc(CNC(=O)C2CCN(C(=O)N3CC(C)Oc4ccccc43)CC2)c1 (stereo unspecified)	4.5%	0.5%	-6.1%	x
COc1ccccc1/C=C/CN1CCC(n2nccc2NC(=O)CCc2ccccc2)CC1	22.6%	-2.6%	-2.1%	x
O=[N+]([O-])c1ccc(N/N=C/c2c[nH]c3ccccc23)cc1	-26.5%	20.6µM*	u	-0.8
Cc1sc(N2C(=O)C3C(C2=O)[C@H]2C=C[C@@H]3C2)c(C#N)c1C (stereo partly specified)	-3.5%	-2.7%	-5.5%	-1.0
C=C(C)C(=O)Nc1ccc(NC(C)C)cc1	-20.5%	5.6%	u	8.6
CCOc1ccc(C(=O)COC(=O)c2cc(=O)[nH]c3ccccc23)cc1	x	u	u	x
CN1CCN(c2ccc(S(=O)(=O)N3CCCCC3)cc2NC(=O)COc2ccc([N+](=O)[O-])cc2)CC1	x	-0.1%	2.8%	x

Additional results follow:
SMILES	miR-21 FLuc	Rango-impB inh	Rango dissoc inh	GLA inh pH 4.5
CCc1noc(C)c1C(=O)N1CCCSC1=Nc1ccccc1	x	0.5%	16.6%	x
OCC1(CCOc2ccccc2)CCN(CCCn2cccn2)CC1	-0.1%	-3.0%	-6.1%	-2.5
Cc1ccnc2nc(C(=O)OCC(=O)Nc3ccc([N+](=O)[O-])cc3Br)nn12	x	-1.4%	6.9%	x
O=C(c1ccc(OC2CCN(Cc3ccccn3)CC2)cc1)N1CCCC(O)C1 (stereo unspecified)	-3.6%	-1.5%	-8.9%	4.4
O=S(=O)(c1cccc(S(=O)(=O)N2CCC(Cc3ccccc3)CC2)c1)N1CCOCC1	-1.5%	u	2.4%	-4.9
Cc1cccc(OCCCC(=O)Nc2nccs2)c1	2.2%	-5.3%	-24.3%	-6.9
O=C(CNC(=O)c1cnccc1C(F)(F)F)c1cccc(Cl)c1	-0.2%	0.3%	1.1%	-13.4
COC(=O)C1CCN(CCCOc2ccc(CN3CCN(c4ccc([N+](=O)[O-])cc4)CC3)cc2)CC1	5.0%	0.2%	5.6%	-2.4
CCCNC(=O)NC(=O)CN1CCCC1c1ccc2c(c1)OCCO2 (stereo unspecified)	-0.2%	4.6%	20.9%	x
CCC(=O)N(C)CCc1cc2c(c(OC)c1/C=N/NS(=O)(=O)c1ccc(C)cc1)OCO2	-2.7%	-3.8%	-7.0%	-7.0
Cc1cccc(CCNS(=O)(=O)c2ccc(S(=O)(=O)N3CCCCC3)cc2)c1	-4.0%	1.2%	-8.5%	-0.2
Cc1ccc(C(CNS(=O)(=O)c2ccc([N+](=O)[O-])cc2)N2CCN(C)CC2)cc1 (stereo unspecified)	x	2.5%	25.5%	x
CN1C(c2ccc(F)cc2)=CS/C1=C(/C#N)c1nnc2n1-c1ccccc1SC2	x	u	0.6%	x
CS(=O)(=O)Nc1ccc(C(=O)N2CCCCC2)cc1	-3.2%	-2.7%	5.9%	3.8
OC(CCCN1CCCCC1)(c1ccccc1)c1ccc(C(F)(F)F)cc1 (stereo unspecified)	x	3.8%	4.7%	x
CC(C)NC(=O)c1cc2cc([N+](=O)[O-])ccc2s1	-1.7%	4.8%	-6.0%	1.4
